Screening results from PubChem BioAssay.
Rango release inh: inhibitors of RanGTP-induced Rango-importin beta complex dissociation; Biochemical FRET Rango-importin beta, RanGTP-induced dissociation; actives 0.071% (n = 340,000); Potency, µM (doses to about 46.1 µM), for the others: at the highest dose activity change, negative = inhibition; O95149+P62826; AID 540253; active means falling FRET ratio curve, often poorly fitted, with flat reads before Ran was added; inconclusive means other falling curves, or compound fluorescence or quenching; inactive means flat or rising ratio curve;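 also: potency is read from the fitted curve at half-maximal effect; % of control where 0% means no effect; nearly all actives have a fitted effect of over 45% in size; -100% = wells without RanGTP and RCC1; the record marks most hits as doubtful in a second field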
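Recombinant Rango FRET biosensor (EYFP–snurportin 1 IBB–cerulean CFP10) at 0.1 uM premixed with 0.25 uM importin beta in PBS, 1 mM DTT, 0.02% Tween-20, 0.1% BSA. Compound added 5 min; RanGTP-RCC1 (0.6 uM Ran, 2 mM GTP, 0.2 uM RCC1) then triggers release, read at 45 min.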
GLA inh pH 4.5: alpha-galactosidase A (human) inhibition, pH 4.5; P06280; purified enzyme, 4-MU-alpha-Gal fluorescence, pH 4.5; activity change, negative = inhibition, % at 105 µM; 230,000 tested, under 10 active; inconclusive = small, poorly fitted or top-dose-only inhibition, or a rising curve; inactive = flat fitted curve, though single readings scatter; no compound was filed as active;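 also: 0% = full activity with enzyme and -100% = basal without enzyme; dose as in the result columns while the protocol names 77 µM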
miR-21 reporter: raises the signal of a miR-21 reporter | Potency, µM (doses to about 38.3 µM), inactives show at the highest dose reporter change, positive = more light | AID 2288 | HeLa miR-21 FLuc reporter, luciferase, 48 h | 340,000 tested, under 10 active; active = well fitted rising curve with a large enough effect; inconclusive = small, poorly fitted or top-dose-only effect; inactive = no such curve, though single readings can be large or run the other way;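 also: % of control where 0% means no effect; miR-21 action dims this reporter so a rising signal means less miR-21 action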
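Using DMEM plus 10% FBS, HeLa miR-21-FLuc cells are incubated with test compounds (final up to about 40uM) for 48 hours; firefly luciferase signal is then imaged following reagent-mediated lysis.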
Rango-impB inh: prevents formation of the Rango-importin beta complex; Rango CFP/YFP FRET sensor + importin beta, 45 min; Potency, µM (doses to about 92.2 µM), inactives show at the top dose inhibition of complex formation; actives 0.031% (n = 340,000); active = rising FRET ratio curve, often small or poorly fitted; inconclusive = mostly compound fluorescence or quenching in the first reads; inactive = flat curves in all reads;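 also: potency is read from the fitted curve at half-maximal effect; 0% = DMSO wells and 100% = buffer wells lacking importin beta; nearly all actives have a fitted effect of over 15% in size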
Target sequence (Q14974 whole entry, looked up): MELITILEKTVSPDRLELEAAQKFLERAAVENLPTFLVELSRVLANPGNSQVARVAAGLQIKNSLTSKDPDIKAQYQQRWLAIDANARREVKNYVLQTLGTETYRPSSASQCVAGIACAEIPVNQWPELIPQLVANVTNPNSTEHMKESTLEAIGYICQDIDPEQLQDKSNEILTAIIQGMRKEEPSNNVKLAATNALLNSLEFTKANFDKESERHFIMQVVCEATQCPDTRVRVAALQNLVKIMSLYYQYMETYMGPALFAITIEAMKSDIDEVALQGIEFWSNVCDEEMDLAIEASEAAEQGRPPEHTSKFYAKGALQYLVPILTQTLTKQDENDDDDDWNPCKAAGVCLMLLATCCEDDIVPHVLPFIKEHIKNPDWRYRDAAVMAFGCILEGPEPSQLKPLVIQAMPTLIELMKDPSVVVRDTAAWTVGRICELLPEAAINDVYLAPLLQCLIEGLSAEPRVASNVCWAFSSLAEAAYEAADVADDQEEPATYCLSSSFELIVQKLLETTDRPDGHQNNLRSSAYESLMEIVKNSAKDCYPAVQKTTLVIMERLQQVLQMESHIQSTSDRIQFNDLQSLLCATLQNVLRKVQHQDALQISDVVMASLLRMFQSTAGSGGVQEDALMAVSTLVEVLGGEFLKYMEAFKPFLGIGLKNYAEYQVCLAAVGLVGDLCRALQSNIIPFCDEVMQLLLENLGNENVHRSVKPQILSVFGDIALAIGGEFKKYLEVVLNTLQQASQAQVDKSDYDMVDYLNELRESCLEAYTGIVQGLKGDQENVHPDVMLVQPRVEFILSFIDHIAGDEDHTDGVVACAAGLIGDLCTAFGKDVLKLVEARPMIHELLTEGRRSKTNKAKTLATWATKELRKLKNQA
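Inhibition scored from the CFP 486 nm/YFP 530 nm FRET ratio 45 min after adding 0.125 microM importin beta to 50 nM Rango biosensor preincubated 5 min with compound (room temperature, PBS with DTT, Tween-20, BSA). No-importin wells as positive control.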
An asterisk follows results filed as active; u = inconclusive; x = not tested or not shown. An excerpt; the hit share may differ from the screen's.

cpd	SMILES	Rango release inh	GLA inh pH 4.5	miR-21 reporter	Rango-impB inh
1	Cc1cc([N+](=O)[O-])cc(/C=N\NC(=O)C2COc3ccccc3O2)c1O (centres undefined)	-16%	-4	5%	-1.9%
2	Cc1cc(C)nc(CCNC(=O)c2cc(COc3c(C)cccc3C)on2)n1	-4%	x	-19%	-1.1%
3	CC(=O)Nc1ccc(S(=O)(=O)N(C)CC(=O)OC(C)C(=O)NC2CCCC2)cc1 (centres undefined)	-4%	x	-1%	2.0%
4	O=C(O)C1CSC(c2ccccc2Cl)N1C(=O)c1ccc(Cl)cc1 (centres undefined)	-11%	0	1%	7.9%
5	CC(=O)N1CCC(c2c[nH]c3ccccc23)CC1	7%	-8	-3%	-1.9%
6	CCOC(=O)C1=C(SCC)c2cc3c(n2C1=O)CCCC3	0%	5	-5%	6.2%
7	CCOCCCN(C)C1CCN(C(=O)c2oc3ccccc3c2NC(=O)Cc2cccc([N+](=O)[O-])c2)CC1	-3%	x	-3%	0.1%
8	COc1ccc(NC(=O)c2ccc(-c3ccc(OC)cc3)s2)cc1	-5%	-22	-1%	-0.9%
9	O=S(=O)(Nc1ccccn1)c1cc(Cl)ccc1Cl	-14%	x	-11%	0.6%
10	COc1cc(NC(=O)C/C(C)=N/NC(=O)c2cccs2)c(OC)cc1Cl	-6%	12	-53%	-1.9%
11	O=CN1CCN(C2CC(=O)N(c3ccc4c(c3)OCO4)C2=O)CC1 (centres undefined)	5%	-1	-5%	-1.2%
12	COc1ccccc1NC(=O)Cc1nn(C)c(=O)c2ccccc12	-10%	6	11%	-3.9%
13	CC(=O)Nc1cc(O)cc(O)c1	-18%	10	1%	u
14	Fc1ccc(-c2nnc(Cc3nnc(-c4ccc(F)cc4)o3)o2)cc1	-15%	-18	-3%	-4.8%
15	c1ccc2cc(OCCN3CCCC3)ccc2c1	6%	-1	-11%	1.2%
16	Oc1ccc(/C=N/Nc2ncc(Br)cn2)c(O)c1	5%	-12	-31%	0.9%

Brought forward from above: 4 compounds, followed by the next part.
cpd	SMILES	Rango release inh	GLA inh pH 4.5	miR-21 reporter	Rango-impB inh
13	CC(=O)Nc1cc(O)cc(O)c1	-18%	10	1%	u
14	Fc1ccc(-c2nnc(Cc3nnc(-c4ccc(F)cc4)o3)o2)cc1	-15%	-18	-3%	-4.8%
15	c1ccc2cc(OCCN3CCCC3)ccc2c1	6%	-1	-11%	1.2%
16	Oc1ccc(/C=N/Nc2ncc(Br)cn2)c(O)c1	5%	-12	-31%	0.9%
17	CCN(CC)S(=O)(=O)c1ccc(OC)c(NC(=O)COc2ccccc2[N+](=O)[O-])c1	6%	-9	0%	3.8%
18	C[C@@H]1C[C@H](Nc2ccccc2)c2ccccc2N1C(=O)c1cccnc1	-2%	x	u	1.1%
19	C=CCNC(=O)N[C@@H](Cc1ccccc1)C(=O)OC	24%	3	-3%	-0.1%
20	O=C1CN(C(=O)COc2ncnc3ccccc23)c2ccccc2N1	12%	0	-1%	-1.1%
21	O=C(NCc1ccc(F)cc1)C1CCCN(S(=O)(=O)c2cccnc2)C1 (centres undefined)	-13%	-13	-4%	1.0%
22	COc1cccc(C(C(=O)NC2CCCC2)N(Cc2ccccc2OC)C(=O)c2ccco2)c1 (centres undefined)	-11%	7	-1%	-0.9%
23	O=c1c2c3c(sc2ncn1/N=C/c1ccco1)CCCC3	6%	-9	-5%	3.5%
24	COc1ccc(NC(=S)NCC2CCCO2)c(OC)c1 (centres undefined)	-17%	5	-4%	-1.1%
25	CCOC(=O)CN1N=C(/C=C/c2ccc(OC)cc2)CCC1=O	-4%	-9	-25%	0.0%
26	Cc1c([N+](=O)[O-])c(C(=O)Sc2ccc(Br)cc2)nn1C	0%	-9	u	-3.6%
27	O=C(CCC(=O)Nc1ccccc1Cl)NNC(=O)Nc1cccc([N+](=O)[O-])c1	19%	x	1%	1.9%
28	C=CCOc1c(Br)cc(CNc2nccs2)cc1OC	-6%	-4	-10%	-0.7%
29	Cc1ccc(Cl)cc1N1CCN(CC(O)COCc2ccco2)CC1 (centres undefined)	5%	-14	-1%	3.2%
30	Cc1cccc2c(C(=O)N3CCCCC3)cc(-c3ccccc3)nc12	-2%	x	3%	-0.4%
31	CN(C(=O)c1cccc(C#N)c1)c1nnc(-c2ccccn2)s1	1%	2	-1%	0.2%
32	CCN(CC(=O)Nc1c(F)cccc1F)C(=O)c1nn(C)c(=O)c2ccccc12	12%	x	x	0.1%
33	COc1ccc(/C=N/N(C)C2=NCCN2)c(OC)c1OC	9%	x	2%	1.3%
34	CC(=O)c1ccc(Nc2cc(C)nc3ccccc23)cc1	7%	-7	11%	-0.3%
35	Cc1ccc(NC(=O)CSc2nc3c(c(=O)[nH]2)CCC3)c(C)c1	12%	x	-1%	-3.1%
36	COc1ccc(C(c2c(C)[nH]n(C(N)=S)c2=O)C(C#N)C#N)cc1 (centres undefined)	-2%	-5	-3%	-0.9%
37	CCc1nnc(NC(=O)c2ccc(Br)c(S(=O)(=O)N3CCOCC3)c2)s1	-25%	x	2%	-2.2%
38	COc1cc2cc(CN(CCc3ccccc3C)C(=S)NCCCN(C)C)c(=O)[nH]c2cc1OC	8%	-8	-6%	-2.5%
39	Cc1nonc1CC(=O)N1CCCC(C(=O)c2cccc(C(F)(F)F)c2)C1 (centres undefined)	-11%	-2	-1%	0.2%
40	OC(COc1ccccc1)CN1CCN(c2cccc(Cl)c2)CC1 (centres undefined)	24%	x	x	0.9%
41	Cc1ccc(CNC(=O)C2CN(S(C)(=O)=O)c3cc(Cl)ccc3O2)cc1 (centres undefined)	9%	1	-3%	0.8%
42	COc1cccc(C(=O)OCc2ccccc2C#N)c1O	-7%	3	-37%	-2.6%
43	CCOc1ccc2nnnn2n1	16%	7	-2%	2.2%
44	COc1ccc(/C=C2\SC(=S)N(CCC(=O)NCCCn3ccnc3)C2=O)cc1	-14%	x	10%	8.9%
45	Cc1cccc(NS(=O)(=O)c2ccc3c(c2)CCC(=O)N3)c1	19%	x	4%	0.2%
46	CCOc1ccc2nc(COC(=O)c3cccs3)c(C(=O)c3ccccc3)[n+]([O-])c2c1	-2%	-1	-18%	-0.4%
47	O=C(NC1CCN(C(=O)Nc2cccc(Cl)c2)CC1)c1ccco1	-7%	x	0%	u
48	Cc1ccc(NC(=S)N(CCN(C)C)Cc2cccs2)cc1C	-16%	-10	5%	-1.9%
49	CCCN(Cc1nnc(-c2cccs2)o1)C(=O)CN1C(=O)NC2(CCCCC2)C1=O	0%	x	x	3.8%
50	COc1ccc(NC(=O)CS(=O)(=O)c2cn(CC(=O)N3CCCC3)c3ccccc23)c(OC)c1	2%	x	-6%	4.2%
51	Clc1ccc2nc(-c3ccccc3)cn2c1	-4%	x	-15%	4.1%
52	COc1ccc(C(=O)C2CCCN(C(=O)COc3ccc(C(C)=O)cc3)C2)cc1F (centres undefined)	23%	7	0%	0.4%
53	CC1CCN(c2c(NCC3CCC(C(=O)NCCC4=CCCCC4)CC3)c(=O)c2=O)CC1 (centres undefined)	-5%	-18	-1%	3.8%
54	O=C(Nc1ccccc1)Nc1nc(-c2ccc(F)cc2)cs1	7%	4	-16%	0.7%
55	O=C1CCN(CCc2ccccc2)CCN1CCSc1ccc(Br)cc1	-5%	-10	0%	-0.2%
56	Cc1ccc(F)cc1NC(=O)CN1CCN(c2ccccn2)CC1	-9%	-22	-3%	-1.8%
57	CCOC(=O)N1CCN(C(=O)CN(c2ccc3c(c2)OCO3)S(C)(=O)=O)CC1	14%	-4	-1%	4.9%
58	COc1ccccc1NC(=O)CSc1nnc(C2CCCCC2)n1N	-28%	x	2%	u
59	CCCC(=O)Nc1nc2c(C)c(Cl)ccc2s1	-3%	-3	-1%	-1.1%
60	CCN(CCCNC(=O)CCn1c(=S)[nH]c2cc3c(cc2c1=O)OCO3)c1cccc(C)c1	-3%	x	2%	4.2%
61	CCn1cc(-c2cc(C(=O)O)c3ccccc3n2)cn1	1%	0	27%	-2.0%
62	O=C(/C=C/c1cccc(Br)c1)N1CCN(c2cccc(C(F)(F)F)c2)CC1	-24%	-2	-4%	1.8%
63	Cn1ccnc1-c1ccc(-c2nccn2C)cc1	-13%	x	-7%	-2.8%
64	Cc1ccc(CNC(=O)C2CCC(CNc3c(N4CCC(C)CC4)c(=O)c3=O)CC2)cc1 (centres undefined)	-4%	-4	-1%	3.3%
65	CCC(CC)NC(=O)Nc1ccc(F)c(Cl)c1	17%	-3	2%	2.9%
66	O=C(Nc1cccc(S(=O)(=O)C(F)F)c1)c1ccc(S(=O)(=O)N2CCCCC2)cc1	-4%	-7	18%	u
67	CCCOc1ccc(C2C(=O)N(C3CCCCC3)CC(=O)N2C2CC2)cc1OC (centres undefined)	11%	11	-7%	0.2%
68	COc1cc(S(=O)(=O)N2CCN(Cc3ccc4c(c3)OCO4)CC2)c(C)cc1C	0%	1	-15%	8.8%
69	CC/S(C)=N/S(=O)(=O)c1ccc(C)cc1 (centres undefined)	9%	-22	2%	-2.0%
70	O=C(N/N=C/c1cc(Br)ccc1O)c1ccncc1	u	-3	19%	u
71	O=C(CN1C(=O)COc2ccccc21)N1CCCC1	10%	x	3%	-1.8%
72	CC1(C)SC(=S)N(NC(=O)Nc2cccc3ccccc23)C1N(O)C(=O)Nc1ccccc1 (centres undefined)	4%	-9	u	u

Further results
cpd	SMILES	Rango release inh	GLA inh pH 4.5	miR-21 reporter	Rango-impB inh
73	O=C(NNC(=S)NC(=O)c1ccccc1[N+](=O)[O-])c1ccccc1[N+](=O)[O-]	-4%	6	-1%	-0.9%
74	CCCCn1c(N)c(N(CCOC)C(=O)c2cc3ccccc3cc2OC)c(=O)[nH]c1=O	-3%	x	x	-2.7%
75	CCn1c(Cc2ccccc2)nnc1SCC(=O)Nc1ccccc1	2%	4	-10%	-0.2%
76	O=C(CCCN1C(=O)NC2(CCCC2)C1=O)N1CCN(S(=O)(=O)c2ccccc2)CC1	0%	x	x	-1.9%
77	CCOC(=O)N1CCc2c(sc3[nH]c(=S)[nH]c(=S)c23)C1	7%	-4	-6%	-0.2%
78	COc1ccc(/C=N/O)cc1COc1ccc(NC(C)=O)cc1	-2%	5	-11%	-2.5%
79	Cc1ccccc1OCc1nnc2n1CC(C)S2 (centres undefined)	22%	12	0%	2.6%
80	CCOC(=O)COc1c(OC)cc(Cl)cc1C1Nc2ccccc2C(=O)N1c1ccc(F)cc1 (centres undefined)	-9%	-2	-23%	-2.9%
81	C/C(CCc1ccco1)=N\NC(=O)CNc1c(Br)cc(Br)cc1Br	-12%	7	3%	3.2%
82	Cc1[nH]c2ccccc2c1SCC(=O)N1CCC(C)CC1	8%	9	1%	-1.1%
83	C[n+]1ccccc1/C=C/c1ccc([N+](=O)[O-])cc1	11%	x	4%	-0.9%
84	Cc1ccn2c(=O)nc(SCC(=O)NCc3ccccc3)nc2c1	-11%	x	x	-4.9%
85	Cc1ccc(NC(=O)c2cccc(NC3=NC4CS(=O)(=O)CC4S3)c2)cc1C (centres undefined)	-11%	x	-11%	-0.4%
86	CCc1ccc(CNCc2ccc(OCC(O)CN(C)Cc3ccccc3)cc2)nc1 (centres undefined)	-11%	-2	26%	-3.5%
87	O=C1c2ccccc2C(=O)N1CCCc1nc2ccccc2c(=O)n1CCCn1ccnc1	-4%	-4	0%	-0.4%
88	C=CCN1C(=O)/C(=c2\sc3nc(=O)c(Cc4ccc(OC)c(OC)c4)nn3c2=O)c2ccccc21	17%	-11	0%	-3.9%
89	O=C(c1cc(COc2c(F)cccc2F)on1)N1CCC(c2ccncc2)CC1	21%	-20	13%	-1.2%
90	Nn1c(SCC(=O)NC(=O)Nc2ccc3c(c2)OCCO3)nnc1C1CC1	7%	-2	-43%	-2.8%
91	COc1cccc(NC(=O)C(=S)NC2CCCCC2)c1	4%	4	-55%	-0.1%
92	O=C(NCc1ccoc1)c1ccc(NC(=O)c2ccccc2Cl)cc1	1%	4	-5%	0.3%
